Source: PubChem (Johns Hopkins Ion Channel Center)
KCNQ2 block – KCNQ2 potassium channel inhibitors, primary screen, cell-based, CHO-K1, FluxOR thallium flux, B-score (AID 2156); Potassium voltage-gated channel subfamily KQT member 2 (Rattus norvegicus), O88943; 20 min; stronger effect = lower value; only compounds with negative scores are shown here; some inactives read as strong as hits; B-score at 10 µM; 310,000 compounds, 1.1% hits;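 active = fluorescence ratio B-score at most minus 3 library SDs, with starting brightness B-score within 2 library SDs, cut at about -5.5 in these data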
Target sequence (O88943 whole entry, looked up): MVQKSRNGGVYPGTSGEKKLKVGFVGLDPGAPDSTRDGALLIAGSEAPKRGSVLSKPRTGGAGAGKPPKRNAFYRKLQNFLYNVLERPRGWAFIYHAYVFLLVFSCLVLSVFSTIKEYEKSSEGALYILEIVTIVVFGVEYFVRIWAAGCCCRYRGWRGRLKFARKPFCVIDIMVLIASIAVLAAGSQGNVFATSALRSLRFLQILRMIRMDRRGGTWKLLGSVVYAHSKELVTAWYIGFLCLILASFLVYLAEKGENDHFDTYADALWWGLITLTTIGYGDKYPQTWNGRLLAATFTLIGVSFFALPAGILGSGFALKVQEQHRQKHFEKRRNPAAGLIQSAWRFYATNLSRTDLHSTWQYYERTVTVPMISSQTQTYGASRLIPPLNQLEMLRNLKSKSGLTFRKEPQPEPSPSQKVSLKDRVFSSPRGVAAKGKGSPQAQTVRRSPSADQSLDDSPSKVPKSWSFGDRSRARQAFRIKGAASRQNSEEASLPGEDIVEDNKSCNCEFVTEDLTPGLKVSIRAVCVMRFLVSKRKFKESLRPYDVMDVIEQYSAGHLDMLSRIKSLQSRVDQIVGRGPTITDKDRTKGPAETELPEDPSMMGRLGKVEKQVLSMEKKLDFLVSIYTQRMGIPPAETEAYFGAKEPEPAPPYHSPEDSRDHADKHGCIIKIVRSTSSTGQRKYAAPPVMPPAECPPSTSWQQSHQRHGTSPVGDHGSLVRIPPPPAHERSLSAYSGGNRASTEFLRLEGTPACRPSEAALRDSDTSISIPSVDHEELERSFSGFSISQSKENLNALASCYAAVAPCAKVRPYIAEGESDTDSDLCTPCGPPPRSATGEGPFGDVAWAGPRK
KCNQ2 block baseline – further read-out of KCNQ2 block, marked with its call; B-score; measured here: initial fluorescence intensity artifact check;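 brightness before thallium and not channel activity; 0 = typical well and far values either way flag optical interference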
* marks the source's active call; other numbers are inactive results; i = inactive. Some of the compounds tested. The share of hits here may be higher or lower than overall.

entry	SMILES	KCNQ2 block	KCNQ2 block baseline
1	CC(=O)N1CCN(S(=O)(=O)c2cccc(C(=O)Nc3nccs3)c2)CC1	i	-3
2	O=S(=O)(NCC1CCCO1)c1cccc2nsnc12 (stereo not given)	i	-0.37
3	O=C(NCc1ccco1)c1cc2c(s1)CSC2	i	0.09
4	Cc1ccccc1C1c2[nH]c3ccccc3c2C[C@H]2C(=O)N(C3CCN(Cc4ccccc4)CC3)CC(=O)N12 (stereo not given in full)	i	0.02
5	CCCC(C(=O)NCC1CCCO1)N(Cc1ccco1)C(=O)CNS(=O)(=O)c1ccccc1 (stereo not given)	i	-1.5
6	CCOC(=O)CC1(C)SC(NC(C)=O)=NN1C(C)=O (stereo not given)	i	0.73
7	N#CC1=C(N)NC(SCC(=O)Nc2ccc(Br)cc2)=C(C#N)C12CCCCC2	i	-2.2
8	CCN(CC)c1ccc(/C=N/NC(=O)c2ccccn2)cc1	i	-1.5
9	COc1ccc(-c2coc3cc(OC4OC(CO)C(O)C(O)C4O)ccc3c2=O)cc1 (stereo not given)	i	-1.4
10	Cc1ccc(C)c2c1cc(C)c1nnc(SCC(=O)Nc3cccc(C(=O)O)c3)n12	i	0.39
11	COc1ccc2cc(CCNC(=O)c3ccc4c(c3)OCO4)c(=O)[nH]c2c1	i	0.32
12	COc1ccc(-c2csc(Cc3nnc(N4CCOCC4)n3-c3ccccc3)n2)cc1	i	-0.95
13	CC(C)(C)OC(=O)NC(CO)c1cn([C@@H](Cc2cc3ccccc3[nH]2)C(=O)N2CCN(C(=O)OC(C)(C)C)CC2)nn1 (stereo not given in full)	i	-0.13
14	CC1=CCC(C(=O)O)C(C(=O)Nc2cccnc2)C1 (stereo not given)	i	0.93
15	C=CCSc1nccc(-c2cc(Cl)sc2Cl)n1	i	0.02
16	Cc1cccc(C)c1NC(=S)NCCSc1ccc(Cl)cc1	i	-0.17
17	COc1cccc(CNc2ccc(N3CCC(C)CC3)cc2)c1OC	i	-0.18
18	CCc1ccccc1OCCCOc1ccc(OC)cc1	i	-1.9
19	CC(C(=O)Oc1ccc2c(c1)OCO2)N1C(=O)c2ccccc2C1=O (stereo not given)	i	-0.55
20	O=C(NCCc1ccc(F)cc1)C(=O)NCC1CCCN1S(=O)(=O)c1ccccc1 (stereo not given)	i	-0.16
21	COc1cccc(CNC(=O)CCCc2c[nH]c3ccccc23)c1	i	2.2
22	COc1ccc(CC(=O)Nc2c3c(nn2-c2cccc(Cl)c2)CS(=O)C3)cc1 (stereo not given)	i	1.5
23	CCC1CN(C(=O)NCc2ccc(F)cc2)c2cc(Cl)ccc2O1 (stereo not given)	i	0.24
24	COc1ccc(S(=O)(=O)N2CCCCC2)cc1NC(=O)c1ccc([N+](=O)[O-])o1	i	-0.05
25	O=C(c1ccc(OC2CCN(Cc3ccccn3)CC2)cc1)N1CCC[C@H]1CO	i	0.07
26	CCc1ccc(NC(=O)C2CCCN2c2nn3c(=O)cc(C)nc3s2)cc1 (stereo not given)	i	-0.69
27	CCc1nnc(NS(=O)(=O)c2ccc(N/C=C/C(=O)c3ccc(OC)cc3)cc2)s1	i	1.1
28	COc1ccc(C(=O)Nc2cc(OCc3ccccc3)c(Cl)cc2Cl)cc1	i	1.6
29	Cn1c(C(=O)NCCN2CCN(c3ccccc3F)CC2)cc2c(=O)n(C)c3ccccc3c21	i	1.4
30	CC(=O)Oc1ccccc1C1=NN(C(C)=O)C(c2ccccc2)C1 (stereo not given)	i	-0.01
31	O=C(CN1CCOCC1)Nc1ccc2c(c1)CCC2	i	-1.6
32	CN(CCc1ccccn1)C(=O)CC1C(=O)NCCN1Cc1cccc(F)c1 (stereo not given)	i	-0.87
33	CC(=O)c1cccc(NC(=S)NC(=O)CC(C)(C)C)c1	i	0.98
34	Cc1cc(N=Cc2c(O)n(-c3cccc(Cl)c3)c(=O)c3ccccc23)no1	i	-1.1
35	COc1cc(/C=C2/SC(=S)N(Cc3ccccc3)C2=O)ccc1OCC(=O)O	i	1.7
36	CC(C)CCNC(=O)Cn1c2c(c(-c3ccccc3Cl)cc1=O)CCC2	i	-0.05
37	O=C(/C=C/c1cc2ccccc2o1)c1ccccc1O	i	1.2
38	COCCn1c(C)cc(C(=O)COC(=O)c2n[nH]c3ccccc23)c1C	i	0.11
39	COC(=O)c1cc(NC(=O)c2ccccc2)c(=O)oc1/C=C/Nc1ccc(Oc2ccccc2)cc1	i	8.2
40	Cc1ccc2nc(SCC(=O)Nc3cc(C(C)(C)C)nn3-c3ccccc3)[nH]c2c1	i	0.37

The list goes on, overlapping the part above by 3 compounds.
entry	SMILES	KCNQ2 block	KCNQ2 block baseline
38	COCCn1c(C)cc(C(=O)COC(=O)c2n[nH]c3ccccc23)c1C	i	0.11
39	COC(=O)c1cc(NC(=O)c2ccccc2)c(=O)oc1/C=C/Nc1ccc(Oc2ccccc2)cc1	i	8.2
40	Cc1ccc2nc(SCC(=O)Nc3cc(C(C)(C)C)nn3-c3ccccc3)[nH]c2c1	i	0.37
41	COc1ccccc1NC(=S)NCC1CCC(CNC(=S)Nc2ccccc2OC)CC1 (stereo not given)	i	0.65
42	CC(=Nc1cccc(C)c1)c1sc2ccccc2c1O	i	-1.4
43	C=CCNC(=S)N/N=C(\C)c1cccc(NC(C)=O)c1	i	-0.94
44	CC(C)(C)n1ncc2c(=O)n(CC(=O)Nc3ccc(Cl)cc3)cnc21	i	-0.26
45	CCC(=O)Nc1sc2c(c1C(=O)OC)CCN(Cc1ccccc1)C2	i	2.7
46	Cc1cc(C(F)(F)F)nc(NCc2cccnc2)n1	i	0.61
47	COc1ccc(C(=O)NCC2OCCc3ccccc32)cc1 (stereo not given)	i	0.04
48	Cc1ccc(C)c(NC(=O)c2nc(Cl)ccc2Cl)c1	i	-1
49	CCOC(=O)C(=CNNc1cccc(Cl)c1)C(=O)OCC	i	1.6
50	COC(=O)C1=C(C(=O)OC)C(c2cc([N+](=O)[O-])ccc2O)c2sc(=O)[nH]c2S1 (stereo not given)	i	0.03
51	COCc1c(C(=O)N2CCc3ccccc32)oc2ccccc12	i	0.3
52	O=C(CNS(=O)(=O)c1c(Cl)cccc1Cl)N1CCCCCC1	i	-0.04
53	CCOC(=O)C(C)c1c(C(=O)c2ccc(C)nc2)c2ccccc2n1C (stereo not given)	i	-1.2
54	CN(CC(=O)NCCc1ccc(S(N)(=O)=O)cc1)S(=O)(=O)c1cccc2nsnc12	i	0.07
55	C=C1C[C@H]2[C@@H]3CCc4cc(OC)ccc4[C@H]3CC[C@]12C	i	-0.89
56	Cc1ccc(S(=O)(=O)c2c(C)nn(C(C)(C)C)c2OC(=O)c2ccc(Br)o2)cc1	i	-0.1
57	CCC(C(=O)NCc1ccco1)N(Cc1cccs1)C(=O)CNS(=O)(=O)c1ccccc1 (stereo not given)	i	0.01
58	O=C(CC(CC(=O)c1ccccc1)c1ccccc1)c1ccccc1	i	0.02
59	CCN(CC)S(=O)(=O)c1cccc(NC(=O)CSc2nnc(N)s2)c1	i	-0.62
60	Cc1ccc(SCc2[nH]nc3c2C2(CCSCC2)C(C#N)=C(N)O3)cc1	i	0.52

A draw from above in order of number of heavy atoms, high to low:
entry	SMILES	KCNQ2 block	KCNQ2 block baseline
29	Cn1c(C(=O)NCCN2CCN(c3ccccc3F)CC2)cc2c(=O)n(C)c3ccccc3c21	i	1.4
5	CCCC(C(=O)NCC1CCCO1)N(Cc1ccco1)C(=O)CNS(=O)(=O)c1ccccc1 (stereo not given)	i	-1.5
32	CN(CCc1ccccn1)C(=O)CC1C(=O)NCCN1Cc1cccc(F)c1 (stereo not given)	i	-0.87
1	CC(=O)N1CCN(S(=O)(=O)c2cccc(C(=O)Nc3nccs3)c2)CC1	i	-3
59	CCN(CC)S(=O)(=O)c1cccc(NC(=O)CSc2nnc(N)s2)c1	i	-0.62
16	Cc1cccc(C)c1NC(=S)NCCSc1ccc(Cl)cc1	i	-0.17

Following part:
entry	SMILES	KCNQ2 block	KCNQ2 block baseline
61	O=C(CCC(=O)N1CCSc2ccccc21)NCc1ccc(Cl)cc1	i	1.4
62	CCCCC(CCC(=O)O)(C(=O)OCC)c1csc(Nc2ccccc2)n1 (stereo not given)	i	0.3
63	Clc1ccc2[nH]c3c(NCC4CCCO4)ncnc3c2c1 (stereo not given)	i	-1.5
64	CCC1CCc2c(sc(NC(=O)c3cnccn3)c2C(N)=O)C1 (stereo not given)	i	1.4
65	O=C(NCCN1CCCC1)c1ccc(Cn2c(=S)[nH]c3ccc(Br)cc3c2=O)cc1	i	1.7
66	COc1ccc(/C=N/n2cncn2)cc1Cn1nc(C)c([N+](=O)[O-])c1C	i	1.2
67	Cn1c(=O)c2c(nc3n2CC(O)CN3c2ccccc2)n(C)c1=O (stereo not given)	i	0.19
68	CN(C)CCCN(C(=O)c1ccco1)c1nc2ccc(Cl)cc2s1	i	0.14
69	CCOC(=O)c1c(CN2CCN(CC#N)CC2)n(C)c2cc(Br)c(OC)cc12	i	1.6
70	S=c1[nH]ccn1CCc1ccccc1	i	-1.8
71	Cn1cc([N+](=O)[O-])c(C(=O)n2cccn2)n1	i	-0.92
72	Cc1ccc2c(c1)N(CC(=O)N1CCN(C3CCCCC3)CC1)C(=O)CO2	i	-0.21
73	COC(=O)c1cccc(N(CC(=O)NC2CCCCC2)C(=O)CNC(=O)c2cccs2)c1	i	0.87
74	NC(=O)CC(NC(=O)c1ccccc1)c1ccc(N2CCCCCCC2)c([N+](=O)[O-])c1 (stereo not given)	i	-3
75	CN(Cc1ccccc1)C(=O)c1cccc(C(=O)N(C)Cc2ccccc2)c1	i	-1.4
76	O=[N+]([O-])c1cccnc1Oc1ccc(F)cc1F	i	0.29
77	O=C(CN1CCN(Cc2ccccc2Cl)C1=O)NCc1ccccn1	i	0.21
78	CC(=O)NC(CCS(C)(=O)=O)C(=O)Nc1ccc2c(c1)OCO2 (stereo not given)	i	-0.02
79	CCC(C)(C)NC(=O)C(c1cccc(OC)c1)N(C(=O)c1ccn[nH]1)c1cccc(OC)c1 (stereo not given)	i	-2
80	CN1C(=O)Cc2cc(S(=O)(=O)NCCc3ccccc3)ccc21	i	-0.73
81	CCn1c(=NC(=O)C2COc3ccccc3O2)sc2c(C)ccc(OC)c21 (stereo not given)	i	0.28
82	CCOc1ccccc1N(CC(=O)NCc1ccccc1)C(=O)CCC(=O)Nc1cc(C)ccn1	i	0.17
83	CCCCN(CCCC)CCCNC(=O)CC1Oc2ccc(C)cc2NC1=O (stereo not given)	i	1.2
84	COC(=O)c1cc(C(=O)OCC(=O)N(C)C2CCS(=O)(=O)C2)cc([N+](=O)[O-])c1 (stereo not given)	i	0.28
85	COc1cccc(-n2nnnc2SCC(=O)Nc2ccc(NC(C)=O)cc2)c1	i	0.15
86	CN(c1ccccc1)c1nc(N)c([N+](=O)[O-])c(Nc2cccc(F)c2)n1	i	-0.02
87	Cc1ccc(N2C(=O)C3C(C2=O)C(C(=O)c2ccc(Cl)cc2)N2CCCC32)cc1 (stereo not given)	i	-0.15
88	COc1ccc(-c2noc(-c3cccc(OC)c3OC)n2)cc1OC	i	-0.9
89	COC(=O)NNC(=O)C(c1ccccc1)c1ccccc1	i	2.1
90	CC(C)CN1CCC(=O)N([C@H](CSc2ccccc2)Cc2ccccc2)CC1	-5.7*	-0.34*
91	NC(=O)CSc1nc2ccccc2c(=O)n1Cc1ccccc1	i	-1.2
92	COC(=O)C1CC(O)CN1S(=O)(=O)c1cccs1 (stereo not given)	i	-0.17
93	O=C(Nc1cccc([N+](=O)[O-])c1)N1CCCCCC1	i	0.16
94	Cc1ccc(C(=O)Nc2ccccc2C(=O)N2CCCCCC2)cc1	i	0.61
95	COc1ccc(C2c3ccc4ccccc4c3Oc3ncn(CCCO)c(=N)c32)cc1 (stereo not given)	i	0.37
96	O=C1C2C3C=CC(C3)C2C(=O)N1c1n[nH]c(-c2cccnc2)n1 (stereo not given)	i	0.39
97	COc1cc(/C=N/n2nnnc2N)cc(OC)c1OC	i	1.8
98	O=C(O)CCC(=O)Nc1ccc(N2CCOCC2)cc1	i	0.23
99	COc1ccc(C(=O)O/N=C2\C(=O)N(C)c3ccccc32)cc1	i	3
100	Cc1ccc(CNC(=O)c2cc(-c3ccccc3)nn2CC2CC(c3cccnc3)=NO2)cc1 (stereo not given)	i	-0.31
101	CCc1ccc(-c2cc3c(=O)n(CC(=O)N4CCCCCC4)nc(C)n3n2)cc1	i	-0.05
102	C=CC[n+]1c(C)csc1Nc1ccc(C(=O)O)cc1	i	-0.29
103	CCCN(Cc1nnc(-c2ccccc2Cl)o1)C(=O)c1cccc(S(=O)(=O)N2CCOCC2)c1	i	0.66
104	O=c1ccc(Cl)nn1-c1ccccc1	i	2.3
105	COc1cccc(NC(=O)CSc2nnc(Cc3cccs3)n2-c2ccc(C)cc2)c1	i	-0.07
106	O=C(Nc1ccc(S(=O)(=O)NC2CCCCC2)cc1)c1ccco1	i	-2.6
107	O=C(Nc1ccc(CN2CCOCC2)cc1)c1ccccc1F	i	0.68
108	CCC(O)C1CCN(C(=O)c2cc(COc3ccc(F)cc3F)on2)CC1 (stereo not given)	i	-0.05
109	Cc1ccc(-n2c(C)c([N+](=O)[O-])c3ccc(O)cc32)cc1	i	0.75
110	Oc1ccccc1N=Cc1c(O)ccc2oc3c(c12)CCCC3	i	1.9
111	Cc1ccccc1-n1ncc2c1CC(C)(C)CC2NC(=O)c1cn[nH]c1C (stereo not given)	i	-0.77
112	COc1ccccc1CNC(=O)[C@H](C)NC(=O)C1CCN(C(=O)[C@H](CCSC)NC(=O)OC(C)(C)C)CC1	i	-0.03
113	CCC(=O)N1CCN(c2ccccc2NC(=O)COc2ccc(C(C)C)cc2)CC1	i	0.13
114	N#Cc1nc(COc2ccc(Cl)cc2)oc1NCc1ccc2c(c1)OCO2	i	-0.08
115	COC(=O)C1=C(C(=O)OC)[C@@H]2N(C)c3ccccc3[C@@]23C[C@@H](C(=O)OC)N(C(=O)CC(C)C)C3=N1	i	-2
